Ecoli growth: E. coli growth inhibition, primary screen, OD600. Escherichia coli growth, 23 h; active compounds read low. OD600 absorbance (concentration not given with the values). 330,000 tested, 0.21% active;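 active = OD600 absorbance below the run mean of sample wells minus 3.6 SD, in any replicate, cut at about 0.56 in these data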;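 note: stock transfer was 300 nL into about 60 µL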
Active calls of the source: *; & = joins results of further samples.

mol,Ecoli growth
CC(C)C(NC(=O)c1ccccc1)C(=O)OCC(=O)N1CCCc2ccccc21 (centres undefined),0.69
Cc1ccc(Cl)cc1NC(=O)NC(C)C(=O)O (centres undefined),0.67
CCC1=C(OC(=O)N(CC)CC)N2C(=O)OC(=NCC(=O)OC)[C@]2(Cc2ccccc2)C2C1=CCC1C(=O)N(c3ccccc3)C(=O)C12 (some centres undefined),0.71
CCOC1OC(C(=O)N2CCOCC2)=CC(c2ccc(Br)cc2)C1CCCO (centres undefined),0.68&0.69
CC1=CC(C)C(c2ccc(C(F)(F)F)cc2)OC1=O (centres undefined),0.71
CCCC=C1CCCOC(C(=O)NCc2ccc(S(C)(=O)=O)cc2)(C(F)(F)F)C1 (centres undefined),0.66
CC(C)(C)NC(=O)C1CC2CCCCC2CN1CC(O)C(Cc1ccccc1)NC(=O)C(CC(N)=O)NC(=O)c1ccc2ccccc2n1 (centres undefined),0.65&0.71
COC(=O)c1ccc(C23CC4(C2)C(CN(CC2CCCCC2)C4c2ccccc2)C3c2ccccc2)cc1 (centres undefined),0.68
COC(=O)C1=C(C(=O)OC)C2N(C)c3ccccc3[C@@]23CC(C(=O)OC)N(C(=O)c2ccc(Br)cc2)C3=N1 (some centres undefined),0.72
NC1=NCC(c2ccccc2)N1CCCCC1CCCCC1 (centres undefined),0.59
CC(NC(=O)c1[nH]cnc1C(=O)Nc1cccc(Cl)c1)c1ccccc1 (centres undefined),0.73&0.69
CN1CCN(C(=O)C2=CC(c3ccc(C(F)(F)F)cc3)CC(OCc3ccc(CO)cc3)O2)CC1 (centres undefined),0.66&0.73
CC(C)(C)OC(=O)NC(C(=O)OC(C)(C)C)c1ccc(Br)cc1 (centres undefined),0.65
CCCCN1CCNCC1c1ccccc1 (centres undefined),0.71
CCOC(=O)C1=CCC(c2cc3ccc(OC)cc3n2C)N(S(=O)(=O)c2ccc(C)cc2)C1C(=O)OCC (centres undefined),0.69
Cc1nc(C=CC(=O)O)c2cc(C)oc2n1,0.7
CCOC(=O)CN1C(=O)NC(c2cccc(C(F)(F)F)c2)C(C(=O)OC)C1C (centres undefined),0.73
CC1CN(C(C)CO)C(=O)c2cc(NS(=O)(=O)c3ccc(Cl)cc3)ccc2OC1CN(C)Cc1ccncc1 (centres undefined),0.71
CCN1C(=O)C(=C2C=Cc3cc(C)ccc3N2CC)N(C)C1=S,0.72
CC=CC(=O)Nc1cccc(C2=NOC3(C2)CC(C(N)=O)N(C(=O)c2ccc(Cl)cc2)C3)c1 (centres undefined),0.66
Cc1cc(C)c(C2=CC(=O)CC(c3ccc4c(c3)OCO4)C2)c(C)c1 (centres undefined),0.71
CC1OC(OC2C(O)CC(OC3C(O)CC(OC4CC[C@@]5(C)C(CCC6C5CC(O)[C@]5(C)C(C7=CC(=O)OC7)CC[C@]65O)C4)OC3C)OC2C)CC(O)C1O (some centres undefined),0.66
CC=C(C)C(=O)Nc1cccc(C2=NOC3(C2)CC(C(N)=O)N(C(=O)CC)C3)c1 (centres undefined),0.61
COC(=O)C1NC(C(NC(=O)COc2ccccc2)C(=O)NC2CC2)SC1(C)C (centres undefined),0.64
O=C(NCc1ccccc1)C1CC1C(NP(=O)(c1ccccc1)c1ccccc1)c1ccccc1 (centres undefined),0.71&0.69
CC1CN(C(C)CO)C(=O)c2cccc(N(C)C)c2OC1CN(C)C(=O)NC1CCCCC1 (centres undefined),0.69
O=C(OC1C(Cc2ccccc2)NS(=O)(=O)C2CC3C=C[C@]12O3)c1ccc([N+](=O)[O-])cc1 (some centres undefined),0.69
C#CCOCCOCCOCCNc1nc(N2CCN(C(=O)C(CCCCN)n3cc(C(N)CO)nn3)CC2)nc(N2CCN(C(=O)C(C(C)CC)n3cc(C(N)Cc4ccc(O)cc4)nn3)CC2)n1 (centres undefined),0.65
CCC(C)C1COCCS(=O)(=O)N1Cc1ccc(Br)cc1 (centres undefined),0.65
CC(=O)OC1CC2CCC3C(CC[C@@]4(C)C3CC([N+]3(C)CCCCC3)C4OC(C)=O)[C@@]2(C)CC1[N+]1(C)CCCCC1 (some centres undefined),0.71

mol,Ecoli growth
COc1ccc(-c2ccc(C3C4C=CCC(C)C4C(=O)N3Cc3ccccc3)c(F)c2)cc1OC (centres undefined),0.74
CCC1=C(OC(=O)N(CC)CC)N2C(=O)OC(=NCC3CC3)[C@]2(Cc2ccccc2)C2C1=CCC1C(=O)N(C)C(=O)C12 (some centres undefined),0.7
CC(C)(C)C1C=C(C(=O)N2CCN(Cc3ccc4c(c3)OCO4)CC2)OC(OCCCCO)C1 (centres undefined),0.7
C[C@]12CCC3c4ccc(O)cc4CCC3C1CCC2OC(=O)CCC1CCCC1 (some centres undefined),0.7
COc1ccc(NC(=O)N(C)CC2Oc3c(NS(=O)(=O)c4ccc(F)cc4)cccc3C(=O)N(C(C)CO)CC2C)cc1 (centres undefined),0.69
O=C(Cc1ccccc1)NC(c1ccccc1)P(=O)(O)CO (centres undefined),0.71
CCCOc1ccc(C2=CC(=O)CC(c3ccc(OC)cc3)C2)cc1 (centres undefined),0.71
CC(C)(C)OC(=O)N1CCN(C(=O)C(Cc2ccc(O)cc2)n2cc(CCO)nn2)CC1 (centres undefined),0.65
CCC(C)C(NC(=O)Nc1ccc(C(C)=O)cc1)C(=O)OC (centres undefined),0.68
COC(=O)C1=C(C(=O)OC)C2N(C)c3ccc(OC)cc3[C@@]23CC(C(=O)OC)N(C(=O)CC(C)C)C3=N1 (some centres undefined),0.68
Cn1cc(CC(NC(=O)OC(C)(C)C)C(=O)NC(CO)Cc2ccccc2)c2ccccc21 (centres undefined),0.68&0.65
CCc1ccc(C2CC=C(C(=O)O)C(c3cccc(Cl)c3)N2S(=O)(=O)c2ccc(C)cc2)cc1 (centres undefined),0.7
CCC(=O)Nc1cccc(C2=NOC3(C2)CC(C(N)=O)N(C(=O)C(c2ccccc2)c2ccccc2)C3)c1 (centres undefined),0.72
O=C1CCN(Cc2ccccc2)CCN1C(CSc1ccccc1)c1ccccc1 (centres undefined),0.69
O=C1NC(Cc2ccccc2)COC(=O)C(Cc2ccc(F)cc2)CCC=CCC1CC(=O)N(CCO)Cc1ccccc1 (centres undefined),0.72&0.69&0.67&0.65&0.72&0.71&0.69
COC(=O)C1=CC(C(=O)OC)C2C3=C(C(=O)[C@]2(C)NC(=O)c2ccccc2)C(C)n2c(=O)n(-c4ccccc4)c(=O)n2C3C1 (some centres undefined),0.64
C[C@]12C(=O)N(c3cccc(F)c3)C(=O)N1C1c3ccccc3OCC1C2c1ccccc1 (some centres undefined),0.7&0.71
O=C(C=Cc1ccccc1)NCCSCc1ccccc1Cl,0.63
Cc1cccc(NC(=O)c2nc[nH]c2C(=O)NC(Cc2ccccc2)C(=O)OCc2ccccc2)c1 (centres undefined),0.72
CCN1C(=O)C2C(c3ccc(-c4ccc5c(c4)OCO5)cc3)N[C@@](Cc3ccccc3)(C(=O)OC)C2C1=O (some centres undefined),0.73
O=C(O)C1CCCCC1C(=O)Nc1ncc([N+](=O)[O-])s1 (centres undefined),0.66
CC(C)(C)OC(=O)NC(CCCCNC(=O)OCc1ccccc1)c1nnc(C(CCCCNC(=O)OCc2ccccc2)NC(=O)OC(C)(C)C)o1 (centres undefined),0.7
Cc1noc(C)c1S(=O)(=O)N(C)CC1Oc2c(NC(=O)NC3CCCCC3)cccc2C(=O)N(C(C)CO)CC1C (centres undefined),0.68
CC1CN(C(C)CO)C(=O)c2cccc(NS(=O)(=O)c3ccccc3)c2OC1CN(C)C(=O)NC1CCCCC1 (centres undefined),0.66
C=C(C)C(=O)Nc1cccc(C2=NOC3(C2)CC(C(N)=O)N(C(=O)C2(C)CC2)C3)c1 (centres undefined),0.69
COC(=O)C1NC(C(NC(=O)COc2ccccc2)C(=O)NCc2ccccc2)SC1(C)C (centres undefined),0.7
OCCC1CC(O)C(O)[C@]2(Cc3ccccc3CO2)O1 (some centres undefined),0.66&0.67&0.7&0.68
C[C@]12C(=O)N(c3ccccc3)C(=O)N1C1c3ccccc3OCC1C2c1ccccc1 (some centres undefined),0.68
CCCN1CCC(=O)N(C(CSc2ccc(Br)cc2)c2ccccc2)CC1 (centres undefined),0.67
NCCCCCc1cn(C(CO)C(=O)NCCCCCCCCCCC(=O)N2CCNCC2)nn1 (centres undefined),0.68

mol,Ecoli growth
O=C(O)C1=CC(c2ccc(F)cc2)CC(OCCCCO)O1 (centres undefined),0.68&0.67
C#CCOCCOCCOCCNc1nc(N2CCN(C(=O)C(CCCCN)n3cc(C(N)CC(C)C)nn3)CC2)nc(N2CCN(C(=O)C(C(C)CC)n3cc(C(N)Cc4ccc(O)cc4)nn3)CC2)n1 (centres undefined),0.68
CCCCN=C1NC(=Cc2ccco2)C(=O)N1c1ccccc1,0.69
CN1CC2C3C(=O)N(C)C(=O)C3[C@](C)(C1=O)N2C(=O)c1ccc(Cl)c(Cl)c1 (some centres undefined),0.67
CCC(C)C1NC(=O)c2cc([N+](=O)[O-])cc(F)c2NCCCCC(C(N)=O)NC(=O)C(CC(N)=O)NC1=O (centres undefined),0.69
COC(=O)C(Cc1ccccc1)NC(=O)C(N)CC(=O)O (centres undefined),0.71
O=C(NC1CCCCC1)C1CC=CC2CCN(C3CCCCC3)C(=O)C21 (centres undefined),0.71
CCOC(=O)C1C2COc3cc(OC)ccc3C2N2C(=O)N(c3ccc(F)cc3)C(=O)[C@@]12C (some centres undefined),0.69
CCC(C)Cc1cn(C(CCCN=C(N)N)C(=O)NCCCCCCCCCCC(=O)N2CCNCC2)nn1 (centres undefined),0.65
COCCN=C1NC(c2cccc(C(F)(F)F)c2)C(C(=O)OC)=C(C)N1Cc1ccccc1 (centres undefined),0.68
CN1C(=O)SC(=Cc2ccccc2OCc2ccc(C(=O)O)cc2)C1=O,0.73
NC(=NOC(=O)Nc1ccccc1)c1ncc(C(F)(F)F)cc1Cl,0.71
CCOC(=O)C1C2COc3ccc(OC)cc3C2N2C(=O)CN(C)C(=O)[C@@]12C (some centres undefined),0.67
CC=CC1=CC(=O)CC(c2ccc3c(c2)OCO3)C1 (centres undefined),0.64
O=C(Nc1ccc(Cl)c(C(F)(F)F)c1)C1CC=CC2CCN(C3CC3)C(=O)C21 (centres undefined),0.68
O=C(NCc1ccccc1)C1=CC(c2coc3ccccc3c2=O)CC(OCc2ccc(CO)cc2)O1 (centres undefined),0.71
C(=Cc1nc(-c2ccccc2)no1)c1ccccc1,0.68
C=CC1c2cccc(C)c2N(S(=O)(=O)c2ccc(C)cc2)C(c2ccc(OC(C)=O)cc2)C1(C#N)C#N (centres undefined),0.71
CCOc1ccc(C(O)=C2C(=O)C(=O)N(CCOCCO)C2c2ccccc2)cc1 (centres undefined),0.67
CN(CC(Cc1ccccc1)N(CCN(CCc1ccccc1)N=O)N=O)N=O (centres undefined),0.68
COc1ccc(SCC(Cc2ccccc2)N2CCC(NC(=O)OCc3ccccc3)CCC2=O)cc1 (centres undefined),0.69
CC(C)=CCC[C@](C)(OC1OC(COC2OC(CO)C(O)C(O)C2O)C(O)C(O)C1O)C1CC[C@]2(C)C1C(=O)CC1[C@@]3(C)CCC(OC4OC(CO)C(O)C(O)C4O)C(C)(C)C3CC[C@]12C (some centres undefined),0.68
COc1ccc(NC(=O)N(C)CC2Oc3c(NC(=O)c4nc5ccccc5s4)cccc3C(=O)N(C(C)CO)CC2C)cc1 (centres undefined),0.69
CC1CN(C(C)CO)C(=O)c2cc(NC(=O)NC3CCCCC3)ccc2OC1CN(C)S(C)(=O)=O (centres undefined),0.65&0.66
COc1ccc(-c2oc(=O)c3cc(OC)c(OC)cc3c2C#C[C@]2(O)CCC3C4CCc5cc(OC)ccc5C4CC[C@@]32C)cc1 (some centres undefined),0.71
C#CCOCCOCCOCCNc1nc(N2CCN(C(=O)CCCCCCCCCCNC(=O)Cn3cc(CC(C)O)nn3)CC2)nc(N2CCN(C(=O)CCCCCCCCCCNC(=O)C(CO)n3cc(CCCSC)nn3)CC2)n1 (centres undefined),0.73
CC(C(=O)N1CCN(C(=O)OC(C)(C)C)CC1)n1cc(CCC(=O)O)nn1 (centres undefined),0.66
C=CCOC(=O)C1=C(C)NC(=O)NC1C=Cc1ccccc1 (centres undefined),0.74
CN1CC2C3C(=O)N(Cc4ccccc4)C(=O)C3[C@](Cc3ccccc3)(C1=O)N2C(=O)c1ccc(Cl)c(Cl)c1 (some centres undefined),0.68

In the list so far, 8 have a COOH group.
mol,Ecoli growth
Cc1ccc(Cl)cc1NC(=O)NC(C)C(=O)O (centres undefined),0.67
Cc1nc(C=CC(=O)O)c2cc(C)oc2n1,0.7
CCc1ccc(C2CC=C(C(=O)O)C(c3cccc(Cl)c3)N2S(=O)(=O)c2ccc(C)cc2)cc1 (centres undefined),0.7
O=C(O)C1CCCCC1C(=O)Nc1ncc([N+](=O)[O-])s1 (centres undefined),0.66
O=C(O)C1=CC(c2ccc(F)cc2)CC(OCCCCO)O1 (centres undefined),0.68&0.67
COC(=O)C(Cc1ccccc1)NC(=O)C(N)CC(=O)O (centres undefined),0.71
CN1C(=O)SC(=Cc2ccccc2OCc2ccc(C(=O)O)cc2)C1=O,0.73
CC(C(=O)N1CCN(C(=O)OC(C)(C)C)CC1)n1cc(CCC(=O)O)nn1 (centres undefined),0.66

Source: PubChem (ICCB-Longwood Screening Facility, Harvard Medical School)

This is a subset; count on the stated rates, not on these rows.
